HSV replic up: HSV replication enhancement; maximum fold increase; hit rate 0.005% among 220,000; HSV replication augmentation in cells, fold increase;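 active = peak rise of 1.5-fold or more in the series; inconclusive = self-fluorescent or not available for retest; tested in PC3 cells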;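 also: first round at 10 µM; read as green reporter fluorescence; hits show the peak of a series up to 25 µM; 1 = signal of infected wells without compound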
Insulin prom inh: TRM-6 insulin promoter activity inhibition; TRM-6 cells (human fetal islet line), insulin promoter-eGFP reporter, imaging; reporter expression induced with tamoxifen; AID 1273; inhibition, % at 2 µM; hit rate 0.9% among 130,000;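 active = inhibition above the mean plus 3 SD, with well images judged a real hit on visual review, cut at about 60% in these data, passing the limit was not always enough; inconclusive = inhibition over the cutoff but images rejected on review; inactive = inhibition not above the cutoff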
RGS16-Gao HTS: regulators of human RGS16-Galphao interaction. hit rate 0.38% among 220,000. O15492+P09471. binding response (% of control), % at 10 µM. bead-based flow cytometry RGS16-Galphao binding, fluorescence; actives lie on both sides;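 active = below 25% or above 175%, edge rows of some plates excepted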;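 also: Galphao activated by GDP with aluminum fluoride before binding; 100% = wells without compound and 0% = beads without RGS; some results beyond the cut were filed as inactive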
GALR2 agonist: GALR2 (human) receptor agonism; activation, %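 (tested at 5 µM)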; AID 803; GALR2-expressing cells, agonist activation read-out; hit rate 0.48% among 140,000;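 active = above mean plus 3 SD of all compounds, about 5% in these data, not always enough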;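 also: 0% = vehicle buffer wells and 100% = reference agonist at full effect; tested in CHO reporter cells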
PKD1 kinase inh: inhibitors of human PKD1 kinase. Q15139. PKD1 kinase fluorescence polarization assay. AID 797. inhibition, %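 (about 10 µM by stock and volumes)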. hit rate 0.056% among 200,000;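 active = inhibition of 50% or more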;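 also: controls were vehicle for no effect and a reference inhibitor for full effect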
Target sequence (Q15139 whole entry, looked up): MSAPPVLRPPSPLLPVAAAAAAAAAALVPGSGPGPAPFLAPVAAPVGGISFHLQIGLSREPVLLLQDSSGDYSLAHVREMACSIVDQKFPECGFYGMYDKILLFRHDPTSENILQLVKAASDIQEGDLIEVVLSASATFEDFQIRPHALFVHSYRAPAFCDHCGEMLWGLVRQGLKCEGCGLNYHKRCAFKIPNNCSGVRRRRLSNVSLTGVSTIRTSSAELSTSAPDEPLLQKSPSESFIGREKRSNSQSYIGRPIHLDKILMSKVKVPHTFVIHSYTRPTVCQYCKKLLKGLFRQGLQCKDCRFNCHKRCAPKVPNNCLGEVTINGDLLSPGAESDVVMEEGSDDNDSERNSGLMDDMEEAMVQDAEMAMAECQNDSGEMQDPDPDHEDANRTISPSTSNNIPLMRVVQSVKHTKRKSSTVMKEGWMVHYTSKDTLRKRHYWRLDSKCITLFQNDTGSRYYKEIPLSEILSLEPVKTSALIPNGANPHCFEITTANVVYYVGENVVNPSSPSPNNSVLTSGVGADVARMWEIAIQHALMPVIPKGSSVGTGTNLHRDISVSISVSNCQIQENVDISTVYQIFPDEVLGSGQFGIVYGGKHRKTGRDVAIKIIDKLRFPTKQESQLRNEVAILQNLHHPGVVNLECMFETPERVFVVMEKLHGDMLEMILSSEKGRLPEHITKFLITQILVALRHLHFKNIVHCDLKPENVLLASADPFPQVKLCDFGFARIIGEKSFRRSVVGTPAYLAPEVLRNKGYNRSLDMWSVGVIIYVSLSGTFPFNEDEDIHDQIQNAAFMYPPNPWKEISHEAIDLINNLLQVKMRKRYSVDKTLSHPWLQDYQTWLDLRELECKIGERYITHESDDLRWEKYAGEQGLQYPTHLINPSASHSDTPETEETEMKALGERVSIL
Insulin prom inh cell count: further read-out of Insulin prom inh, marked with its call; normalized cell count, %; measured here: cell count, toxicity; reference of the scale not given here;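 cells exposed to compound for 48 h; stained nuclei by imaging scaled within each plate; lower means fewer cells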
HSV replic up primary fold: also measured in HSV replic up; calls as there; fold increase; compound at 10 µM; measured here: primary screen fold increase 10 uM; tested in PC3 cells;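 GFP signal in the first replicate; 1 = infected wells without compound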
* = called active by the depositor; i = inactive; ? = inconclusive; nt = no result given. Hits appear at their usual frequency, and some 1.1% of all compounds hit somewhere here.

SMILES	HSV replic up	HSV replic up primary fold	Insulin prom inh	Insulin prom inh cell count	RGS16-Gao HTS	GALR2 agonist	PKD1 kinase inh
CCc1ccc(/C=C(\C)C(=O)c2c(C)cc(C)[nH]c2=O)cc1	i	0.82	25	75	99	nt	-2
CN1CCC(C(=O)N2CCCC(C(=O)c3ccc4c5c(cccc35)CC4)C2)CC1 (centres undefined)	i	0.86	nt	nt	98	nt	1
COc1ccc(CC(=O)NNC(=O)c2cccs2)cc1OC	i	0.99	nt	nt	99	nt	-1
O=C(/C=C/c1cccs1)NC(=S)Nc1ccc(S(=O)(=O)Nc2ccccc2C(F)(F)F)cc1	i	0.86	nt	nt	91	nt	nt
CC(NC(=O)c1ccc(Cn2cc([N+](=O)[O-])cn2)o1)c1ccccc1 (centres undefined)	i	1	nt	nt	101	-3.1	-6
Cc1ccccc1OCC(=O)NC(=S)Nc1ccc(Br)c(C)n1	i	0.73	nt	nt	107	-3.2	0
CCN1C(=O)C(Cc2nc3ccccc3c(=O)n2-c2ccccc2)c2ccccc21 (centres undefined)	i	0.88	-83	130	99	-0.8	-8
CCSc1nnc(CNC(=O)C23CC4CC(CC(C4)C2)C3)n1Cc1ccccc1	nt	nt	nt	nt	102	0.1	-1
COc1cc(OC)c(OC)cc1/C=C/C(=O)c1ccc(NS(=O)(=O)c2ccc(C)cc2)cc1	i	1.3	-37	88	109	-0.8	-6
CC(C)(C)OC(=O)N1CCCN(C(=O)Nc2ccc(C(F)(F)F)cc2)CC1	i	1.1	nt	nt	108	nt	nt
CCOC(=O)c1c(CN2CCOCC2)n(-c2ccccc2)c2cc(Br)c(OC)cc12	i	0.99	-6	116	102	0.6	-5
CCOC(=O)Cc1csc(NC(=O)CSc2nc(N)c3c(C)c(C)sc3n2)n1	i	1	100*	21*	110	-1.5	0
CC/C(=N/Nc1ccccc1)c1cnnc(SC)n1	i	0.93	nt	nt	102	-0.2	10
O=C(CCn1c(=O)[nH]c2ccccc2c1=O)NCCCN1CCN(c2cccc(Cl)c2)CC1	i	0.88	nt	nt	98	1.6	7
FC(F)c1nc2ccccc2[nH]1	i	0.97	-8	108	86	nt	-5
COc1ccc(-n2nnc3c(=O)n(CC(=O)Nc4cc(C)on4)cnc32)cc1OC	i	0.95	-29	120	111	nt	-3
COc1ccc(/C=C/C(=O)OCC(=O)N2CC(=O)Nc3ccccc32)cc1S(=O)(=O)N1CCOCC1	i	0.9	24	69	86	nt	-5
Cc1cc(C(=O)C(=O)O)c(C)n1-c1ccc(Cl)cc1	i	1.1	6	96	99	nt	-2
Cc1ccccc1C(=O)c1c[nH]c(C(=O)NCc2ccco2)c1	i	0.71	-34	98	100	-1.4	-11
O=C(Nc1ccc(Oc2ccc(NC(=O)c3ccco3)c(NC(=O)c3ccco3)c2)cc1)c1ccco1	i	0.74	49	183	103	2.2	-3
CC(C)c1nc2ccccc2n1CCC(=O)O	i	0.95	-14	83	102	-1.7	-2
O=S(=O)(c1ccc2c(c1)OCCO2)N(Cc1ccc(F)cc1)Cc1nnc(-c2cccs2)o1	i	0.85	-45	241	100	-1.1	-7
Cc1ccc(NC(=O)C2CCN(S(=O)(=O)c3cnc[nH]3)CC2)nc1	i	0.69	nt	nt	98	-1.1	-8
CCC(Cc1ccccc1)NCc1c(C(=O)O)c(C)n(Cc2ccccc2)c1C (centres undefined)	i	0.95	43	118	98	nt	4
Cc1ccc(/C=C2\SC(=S)N(CCC(=O)NNC(=O)c3ccncc3)C2=O)cc1	i	0.87	nt	nt	97	nt	nt
COc1cc(Nc2nnc(C)s2)c(Cl)cc1Cl	i	1	-26	166	86	-0.6	-2
CC1(C)C(c2ccccc2)=NC(c2ccc(F)cc2)N1O (centres undefined)	i	0.99	nt	nt	99	-1.8	-2
CSc1ncccc1C(=O)OCc1ccc([N+](=O)[O-])cc1	i	0.94	nt	nt	95	nt	-1
O=C(Nc1ccc(N2CCN(C(=O)c3ccco3)CC2)c(Cl)c1)c1cccnc1	i	0.9	nt	nt	104	nt	-4
CCCCOc1cccc(C(=O)NC(=S)Nc2cccnc2)c1	nt	nt	-46	95	100	-1.8	-8
COc1cc2c(cc1OC)CN(C(=O)c1ccccc1C(=O)O)CC2	i	0.85	nt	nt	96	-0.5	-2
OC(CN1C2=NCCCN2c2ccccc21)c1ccc(Br)cc1 (centres undefined)	i	0.88	-4	89	105	-1.9	-4
CCOC(=O)c1sc(=NC(=O)CCS(=O)(=O)c2ccccc2)n(C)c1C	i	1	31	88	96	nt	91*
Cc1cc(=O)n2nc(N3CCC(C(=O)NCCc4ccccc4)CC3)sc2n1	i	0.9	31	101	93	1.1	7
CCN(Cc1ccccc1)C(=O)Cn1cnc2c1c(=O)n(C)c(=O)n2C	i	0.86	nt	nt	96	-0.3	-4
O=C(O)c1nc2ccccc2nc1C(=O)O	i	0.94	nt	nt	94	-2.8	0
CC(=O)Nc1ccc(S(=O)(=O)Nc2cccc3[nH]ncc23)cc1	i	1	27	233	107	nt	-2
CC1(C)CC(=O)C(C2NCCc3ccccc32)=C(O)C1 (centres undefined)	i	1	47	148	103	-0.4	-4
C/C(=N\Nc1cc(C)nc(NCc2ccccc2)n1)c1ccc([N+](=O)[O-])cc1	i	1.1	nt	nt	103	nt	nt
CCOC(=O)C1(Cc2cccc(Cl)c2)CCCN(C2CCN(C(C)=O)CC2)C1 (centres undefined)	i	1.1	nt	nt	101	nt	2

Marked active in PKD1 kinase inh, of those listed so far:
Structure | HSV replic up | HSV replic up primary fold | RGS16-Gao HTS | GALR2 agonist | PKD1 kinase inh
CCOC(=O)c1sc(=NC(=O)CCS(=O)(=O)c2ccccc2)n(C)c1C | i | 1 | 96 | nt | 91*

(listing goes on)
SMILES	HSV replic up	HSV replic up primary fold	Insulin prom inh	Insulin prom inh cell count	RGS16-Gao HTS	GALR2 agonist	PKD1 kinase inh
COc1cccc(C(c2nnnn2CS(=O)(=O)c2ccc(C)cc2)N2CCN(C)CC2)c1OC (centres undefined)	i	0.89	-50	98	99	-0.6	-3
Clc1cccc(-c2nnc(-c3ccccc3)o2)c1	i	1	9	59	-31	-1.0	12
Cc1nc2c(=O)[nH]c(=S)n(C)c2nc1C	i	1	-40	98	73	-0.4	4
Cn1c(NCCN2CCOCC2)nc2c1c(=O)n(Cc1cccc(Cl)c1)c(=O)n2C	i	1	nt	nt	99	-2.2	-5
O=C(Nc1cccc(Br)c1)c1ccn[nH]1	i	0.73	nt	nt	105	-2.0	10
O=C(CSc1ccc(-c2ccc(F)cc2)nn1)N1CCN(c2ccccc2)CC1	i	0.91	nt	nt	24	-0.5	-7
COC(=O)c1ccc(OCC(=O)c2ccc(O)cc2O)cc1	i	0.89	-19	86	102	-0.1	-8
CCN(CC)C(=O)c1sc(NC(=O)c2ccncc2)c(C(=O)OC)c1C	i	0.95	17	78	35	0.5	12
Cc1ccc(S(=O)(=O)N2CCCC2C(=O)Nc2nc3ccccc3s2)cc1 (centres undefined)	i	0.99	31	95	102	-0.3	1
CCOC(=O)N1CCN(C(=O)c2ccc3c(SCC(=O)O)c4c(nc3c2)CCC4)CC1	i	1.1	nt	nt	96	-0.6	-13
Cc1cc(C(=O)Nc2cnn(Cc3ccc(Cl)cc3Cl)c2)no1	i	0.76	nt	nt	99	-0.1	-7
COc1ccc(C2CC(c3ccccc3)=NN2C(=O)COC(=O)c2cccc(S(=O)(=O)N(C)C)c2)cc1 (centres undefined)	i	1	-47	75	112	-0.9	9
CCOc1cc(N2CCOCC2)c(OCC)cc1NC(=O)c1ccc(OC)cc1	i	0.94	7	140	100	nt	-3
CC(=O)N[C@@H](Cc1c[nH]c2ccccc12)C(=O)OCC(=O)Nc1ccc(S(=O)(=O)N(C)C)cc1	i	0.86	nt	nt	100	nt	-3
O=C(CC1S/C(=N/N=C/c2cccnc2)NC1=O)Nc1ccccc1 (centres undefined)	i	1	50	63	99	nt	-4
COc1cc(/C=N/NC(=O)C2COc3ccccc3O2)ccc1O (centres undefined)	i	1	nt	nt	104	nt	nt
CC(=O)NCCc1nc2ccccc2n1CCOc1cccc(C)c1	i	1	nt	nt	93	nt	nt
O=C1C2CC=CCC2C(=O)N1c1n[nH]c(CCc2ccccc2)n1 (centres undefined)	i	0.93	22	119	101	-0.9	-3
O=S(=O)(c1ccccc1)n1ccc(-c2cnc(-c3ccccc3)s2)n1	i	0.89	19	181	105	-2.8	-8
COc1cccc(NC(=O)CCP(C)(=O)O)c1	i	1.1	nt	nt	94	1.0	9

The closing 3 records of the part above are carried over, then new ones follow.
SMILES	HSV replic up	HSV replic up primary fold	Insulin prom inh	Insulin prom inh cell count	RGS16-Gao HTS	GALR2 agonist	PKD1 kinase inh
O=C1C2CC=CCC2C(=O)N1c1n[nH]c(CCc2ccccc2)n1 (centres undefined)	i	0.93	22	119	101	-0.9	-3
O=S(=O)(c1ccccc1)n1ccc(-c2cnc(-c3ccccc3)s2)n1	i	0.89	19	181	105	-2.8	-8
COc1cccc(NC(=O)CCP(C)(=O)O)c1	i	1.1	nt	nt	94	1.0	9
O=C(NC1CCCCC1)C(=O)c1c(-c2ccccc2)[nH]c2ccccc12	i	0.82	-12	98	103	-0.5	-12
CC(C)C(NC(=O)c1ccccc1NC(=O)c1ccco1)C(=O)O (centres undefined)	i	1.1	-185	78	107	-2.0	-13
Cc1ccc(C2=Nc3c(ccc4ccccc34)C(c3ccncc3)=NN2)cc1	i	0.8	nt	nt	106	nt	-6
O=C(c1ccc(Cl)cc1)C1CCCN(C(=O)/C=C/c2ccccn2)C1 (centres undefined)	i	0.94	nt	nt	96	nt	-6
Cc1ccc(NS(=O)(=O)c2ccc(NC(=O)C(C)Sc3ccc(Cl)cc3)cc2)c(C)c1 (centres undefined)	i	0.92	22	119	103	-0.5	-3
CCOCCn1c(C(C)O)nc2ccccc21 (centres undefined)	i	1.1	-305	61	101	-2.0	-7
CCCOc1ccc(Cc2c(Cl)nc(SC)nc2NC)cc1	i	1	-36	99	98	-0.7	-2
Cc1nc(-c2cccc(S(=O)(=O)N3CCCCCC3)c2)cs1	i	1	-11	90	79	-0.2	0
Cc1cc(Cc2cc(C)c(N)cc2C)c(C)cc1N	i	0.99	20	152	98	nt	2
Cc1cc(-c2ccccc2)nc(N2CCC(C(=O)NCC3CCCCC3)CC2)n1	nt	nt	16	169	nt	-1.1	-11
CC(=O)OCC1OC(n2ccc3ccccc32)C(OC(C)=O)C(OC(C)=O)C1OC(C)=O (centres undefined)	i	1.1	0	114	-73	-1.5	3
c1ccc(Nc2ccc3c4c(cccc24)CC3)cc1	?	nt	58	131	97	-4.1	-4
Cc1cc(C)n(C(=O)CCC2COc3ccccc3O2)n1 (centres undefined)	i	0.95	15	107	97	-3.0	-7
CCC(=O)NC(=S)Nc1ccc(-c2nc3ccc(C)cc3s2)cc1	i	1	6	87	102	-1.2	0
CCC(=O)NC(Nc1nc2ccc(C)cc2s1)(C(=O)OC)C(F)(F)F (centres undefined)	nt	nt	19	98	98	-2.0	1
NNC(=S)Nc1ccc(C(F)(F)F)cc1Cl	i	1.1	nt	nt	101	nt	nt
O=c1cc(N2CCc3ccccc3C2)[nH]c(=O)n1C1CCCCC1	i	0.98	-29	149	84	-1.1	12
O=C(NC1CCCCC1)C1CCN(S(=O)(=O)N2CCCCCC2)CC1	i	1.1	nt	nt	102	-1.2	-1
O=C(COc1ccccc1C(=O)NCC1CCCO1)Nc1ccc(Cl)cc1Cl (centres undefined)	i	0.91	nt	nt	101	nt	-2
Cc1ccc(-c2nnc3n2CCCCC3)cc1	i	0.97	23	105	103	-1.5	-4
Cc1cccc(/C=N/c2sc3c(c2C(=O)OC(C)(C)C)CCN(C)C3)c1O	i	1.1	nt	nt	103	-0.8	5
CCCCCCC(C)n1[nH]c(=O)c2c(C)cc(=O)[nH]c21 (centres undefined)	nt	nt	18	210	102	-0.5	-11
O=C(O)c1ccc(Cn2cnc3sc4c(c3c2=O)CCCC4)cc1	i	0.93	nt	nt	105	nt	4
COCC(=O)N=Nc1c(O)[nH]c2ccccc12	i	0.95	nt	nt	174	-0.5	-9
Cc1ccc(COn2c(-c3ccc(Cl)cc3)nc3ccc([N+](=O)[O-])cc32)cc1	i	0.53	nt	nt	94	-0.8	-8
COc1ccc(NC(=O)C2C(=O)N(C)C3(C)CC2c2ccccc2O3)cc1 (centres undefined)	i	0.91	nt	nt	114	-1.0	-8
S=C(c1ccc(-c2ccccc2Cl)o1)N1CCOCC1	i	0.87	-7	80	76	-3.7	-7
CC(C)(C)c1ccc(NC(=S)NCc2cccs2)cc1	i	0.93	-51	55	81	-3.8	-3
